# CtBP-E1A inh – qHTS Assay for Inhibitors of the CtBP/E1A Interaction; CtBP / adenovirus E1A interaction (AlphaScreen); AlphaScreen GST-E1A/His-CtBP binding, 1536-well; hits give low values; control for the full effect not named in the record; activity change, % (test concentration not listed); hit rate 0.49% among 340,000; AID 651724, 2012; in the data active means activity change below about -65%; inconclusive means about -30% to -65%; inactive means above about -30%; note: % is set by controls: 0 for no effect and ±100 for the full control effect; compound concentration not given in the record
#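 Protein mix (5X: 125 nM each GST-E1A, His-CtBP) was incubated with pinned compound 2 h at 37 deg C in dark, in 50 mM Tris pH 8.0 buffer with 300 mM NaCl. Glutathione donor and nickel acceptor beads followed; AlphaScreen signal read after 1 h.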
# Six1-Eya2 blk – qHTS Assay for Inhibitors of the Six1/Eya2 Interaction; hit rate 0.56% among 360,000; Homeobox protein SIX1 (Homo sapiens) + Protein phosphatase EYA2 (Homo sapiens), …; activity change, % (no concentration beside the values); AlphaScreen GST-Six1/His-Eya2 binding, biochemical; hits give low values; control for the full effect not named in the record; in the data active = activity change below about -65%; inconclusive = about -30% to -65%; inactive = above about -30%; note: % is set by controls: 0 for no effect and ±100 for the full control effect; compound concentration not given in the record
# Target sequence (O00167 whole entry, looked up): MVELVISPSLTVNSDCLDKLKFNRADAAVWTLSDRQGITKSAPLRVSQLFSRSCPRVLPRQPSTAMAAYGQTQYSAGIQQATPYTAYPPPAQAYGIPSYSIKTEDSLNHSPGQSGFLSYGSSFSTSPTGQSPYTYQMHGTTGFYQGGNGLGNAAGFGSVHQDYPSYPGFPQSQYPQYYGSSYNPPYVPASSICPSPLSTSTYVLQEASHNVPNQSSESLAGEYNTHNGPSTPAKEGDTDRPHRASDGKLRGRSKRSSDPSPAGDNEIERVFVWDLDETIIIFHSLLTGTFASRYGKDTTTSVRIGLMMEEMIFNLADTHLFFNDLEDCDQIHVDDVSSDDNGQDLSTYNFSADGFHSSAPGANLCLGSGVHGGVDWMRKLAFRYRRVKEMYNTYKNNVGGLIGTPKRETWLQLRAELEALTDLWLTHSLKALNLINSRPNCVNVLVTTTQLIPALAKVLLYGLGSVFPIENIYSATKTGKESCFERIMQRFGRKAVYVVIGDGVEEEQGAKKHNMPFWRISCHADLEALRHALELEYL
# Target sequence (Q15475 whole entry, looked up): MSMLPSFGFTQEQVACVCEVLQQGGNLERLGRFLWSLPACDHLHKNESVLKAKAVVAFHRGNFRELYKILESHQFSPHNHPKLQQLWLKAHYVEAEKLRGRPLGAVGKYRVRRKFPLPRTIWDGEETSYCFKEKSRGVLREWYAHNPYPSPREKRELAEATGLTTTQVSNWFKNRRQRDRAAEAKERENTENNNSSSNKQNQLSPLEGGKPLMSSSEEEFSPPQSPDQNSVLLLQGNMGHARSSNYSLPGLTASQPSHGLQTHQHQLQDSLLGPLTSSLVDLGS
#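 AlphaScreen luminescence read after one hour at 37 °C in darkness. Pin-transferred compounds met GST-Six1 and His-Eya2 protein (5X stock 250 nM/500 nM) plus glutathione donor and Ni-chelate acceptor beads (5X, 50 ug/mL).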
# TRPML1 inh – qHTS for Inhibitors of the Human Mucolipin Transient Receptor Potential 1 (TRPML1); TRPML1-inducible cells, Ca2+ dye fluorescence, FDSS; hits give low values; inhibition of EC80 agonist-evoked calcium signal; activity change, negative = inhibition, % (no concentration beside the values); AID 624415, 2012; Mucolipin-1 (Homo sapiens), Q9GZU1; hit rate 0.02% among 390,000; in the data active means activity change below about -50%; inconclusive means about -30% to -50%; inactive means above about -30%;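 note: stimulus is agonist 54-4 at its EC80 concentration; % is set by controls: 0 for no effect and ±100 for the full control effect; compound concentration not given in the record; the text of the record puts the active cut at -80%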
#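 Calcium fluorescence in TRPML1-DL cells induced overnight with Tet: a 110 s read after compound pin addition, then a 110 s antagonist read after challenge with 54-4 at 4 uM final (EC80).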
# PINK1 modulator – A Quantitative High throughput Screen to Identify Chemical Modulators of PINK1 Expression | PINK1 immunofluorescence, high-content cytometry, 24 h | Potency, µM (doses to about 76.6 µM), inactives show top-dose activation (PINK1 increase), actives largely listed as activators | hit rate 0.2% among 410,000 | AID 624263, 2012; active = well fitted activation curve with a large enough effect; inconclusive = small, poorly fitted or top-dose-only effect; inactive = flat fitted curve, though single readings scatter; cell line not stated here;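 note: potency is the fitted concentration of half-maximal effect; % of control where 0% means no effect; nearly all actives have a fitted effect of over 65% in size; a mitochondrial uncoupler was the plate control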
#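 Readout is PINK1 immunofluorescence, quantified alongside mitochondrial, cell and nuclear markers by laser-scanning microplate cytometry. Cells from a stable line were exposed to compound titrations (5 concentrations) for 24 hours, with CCCP controls.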
# TRPML1 ag – qHTS for Agonists of the Human Mucolipin Transient Receptor Potential 1 (TRPML1) | TRPML1-expressing cells, Ca2+ dye fluorescence, FDSS; host cell line not named in the record; reference of the full effect not given here | hit rate 0.12% among 410,000 | Mucolipin-1 (Homo sapiens), Q9GZU1 | activation, % (test concentration not listed); in the data active = activation above about 50%; inconclusive = about 30% to 50%; inactive = below about 30%; note: 0% is about no effect; the text of the record puts the active cut at 80%
#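 Calcium fluorescence on an FDSS kinetic reader gave the read-out. Tet-induced TRPML1-DL cells were plated overnight, dye-loaded (Ca8 with quencher, 45-90 min, room temperature, dark), then read 110 s after compound addition, and again 110 s after 4uM final 54-4 (EC80).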
# D2 ag – Beta-Arrestin HTS for Positive Allosteric Modulators of the Human D2 Dopamine Receptor: Agonists. hit rate 0.084% among 360,000. activation, % (concentration not given with the values). DiscoveRx PathHunter D2 beta-arrestin, luminescence, 90 min; 100% = 57 uM dopamine signal. AID 624465, 2012; in the data active = activation above about 40%; inconclusive = about 15% to 40%; inactive = below about 15%; note: compound concentration not given in the record; the text of the record calls up to 30% inactive
#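 Agonist mode: compounds alone added to overnight-plated D2 PathHunter cells for 90 min at 37 C, with 57 uM final dopamine (EC100) defining full response. Beta-arrestin recruitment detected by chemiluminescent reagent, read after 1 h at ambient temperature.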
# * marks the source's active call; other numbers are inactive results; ? = inconclusive; nt = not tested or not shown; [ ] = another dose, or the depositor's remark. Compounds as they come. About 1% of those tested had a hit in this group.
SMILES	D2 ag	PINK1 modulator	Six1-Eya2 blk	TRPML1 ag	TRPML1 inh	CtBP-E1A inh
COc1ccc(CCn2c(C)nc3ccccc3c2=O)cc1OC	-3.2	0.1%	3	0.8	7	nt
CC(OC(=O)c1cccc(-n2cnnn2)c1)C(=O)Nc1ccc(F)cc1 (configuration not stated)	-6.3	0.1%	4	1.2	34	2
Cc1c(CCOC(=O)CC23CC4CC(CC(C)(C4)C2)C3)sc[n+]1CC(=O)c1ccccc1	2.7	-5.4%	-3	1.8	4	-7
COCC1CCN(Cc2cn[nH]c2-c2cc(OC)c(OC)c(OC)c2)CC1	1.4	0.3%	-2	0.9	5	3
O=C(N/N=C/c1ccc(C(=O)O)cc1)C(=O)N1CCCCCC1	0.9	0.5%	0	1.2	-6	-4
Cc1cc(C)c(OCCCNCc2ccccc2)c(Br)c1	-7.7	-0.6%	4	nt	nt	nt
COc1nc(NCC(C)C)nc(Oc2ccc(OCc3ccccc3)nn2)n1	-3.1	-0.8%	-1	1.0	23	-1
CCOc1ccc(N(C(=O)CNC(=O)c2ccco2)C(C(=O)NC2CCCC2)c2cccnc2)cc1 (configuration not stated)	-4.6	-2.5%	-1	0.3	1	-12
Cc1ccccc1-c1noc(-c2ccccc2OCC(=O)Nc2cccc([N+](=O)[O-])c2)n1	nt	0.4%	nt	0.5	-16	nt
CSC[C@@H]1NC(=S)N(c2ccc(C)cc2)C1=O	-5.4	11%	0	0.5	2	-21
CC(C)OC(=O)N(C)C[C@H]1OCc2cn(nn2)CCCC(=O)N([C@H](C)CO)C[C@@H]1C	-11	0.6%	0	-0.4	-4	2
O=C(O)C1CCN(c2ccc([N+](=O)[O-])cc2[N+](=O)[O-])CC1	-1.8	-1.8%	5	0.6	2	0
O=C1C(=O)N(c2ccccc2)c2ccccc21	-13	1.9%	13	0.9	-1	13
OCCNCc1cccc(OCc2ccc(Cl)cc2)c1	0.6	-1.0%	18	1.1	11	0
CN(C(=O)c1cc2nc(-c3ccco3)cc(C(F)(F)F)n2n1)C1CCCCC1	-4.3	nt	4	0.8	-11	6
O=C(NNS(=O)(=O)c1ccc(F)cc1F)C1Cc2c(ccc3ccccc23)O1 (configuration not stated)	-2.2	-0.2%	19	0.0	10	25
CCCNC(=S)Nc1ccc(S(N)(=O)=O)cc1	-13	-0.2%	6	0.8	-12	22
Cc1ccc(NC(=O)CN2C(=O)C(c3ccc(F)cc3)=NC23CCCCC3)c(C)c1	nt	0.2%	nt	1.1	6	nt
COc1ccc(OC)c(C(C[N+](=O)[O-])c2c(C)cc3ccccn23)c1 (configuration not stated)	-3.4	1.6%	-24	-0.2	8	-16
CCCC(=O)Nc1cc(=O)[nH]c2ncnn12	-2.2	3.4%[38.3 µM]	0	-0.5	-2	3
O=C(O)c1cccc(Cl)n1	-0.2	-0.7%	4	nt	nt	8
Nn1c(SCc2nc3ccccc3[nH]2)nnc1-c1cccnc1	-0.4	2.9%[38.3 µM]	-2	-0.1	-16	3
O=C(NN1C(=O)/C(=C/C=C/c2ccco2)SC1=S)c1ccccc1O	-2.7	-2.7%	-72*	1.0	3	?
O=C(NC(=O)N1CCOCC1)c1ccccc1	-5.4	-3.5%	5	-0.2	9	3

# Part of the list above, showing only TRPML1 inh, CtBP-E1A inh and D2 ag:
SMILES | TRPML1 inh | CtBP-E1A inh | D2 ag
Cc1ccc(NC(=O)CN2C(=O)C(c3ccc(F)cc3)=NC23CCCCC3)c(C)c1 | 6 | nt | nt
COc1ccc(OC)c(C(C[N+](=O)[O-])c2c(C)cc3ccccn23)c1 (configuration not stated) | 8 | -16 | -3.4

# More structures.
SMILES	D2 ag	PINK1 modulator	Six1-Eya2 blk	TRPML1 ag	TRPML1 inh	CtBP-E1A inh
Cc1cc(C)c(S(=O)(=O)N2C=CC(C(F)(F)F)=NCC2)c(C)c1	0.2	-1.2%	5	1.7	1	1
CSc1nnc(C)c(=O)n1COC(=O)c1ccccc1	-1.3	1.9%	6	-1.0	-4	5
COc1cc(C(=S)N2CCCC2)ccc1OCc1ccccc1	5.1	1.1%	-7	-0.4	-3	2
COc1ccc(/C=N/N2CCN(c3ccccc3OC)CC2)cc1OC	1.2	2.5%[38.3 µM]	-2	0.0	3	-3
Cc1cc(OCCN2CCOCC2)nc2ccccc12	-1.1	0.8%	9	-0.6	6	-3
COc1cc(NC(=O)COC(=O)c2n[nH]c3ccccc23)c(C)cc1[N+](=O)[O-]	-3.8	45µM*	-7	0.5	3	nt
Cn1cc(C(=O)N2CCc3ccccc32)cn1	-2.1	1.7%	-5	0.6	3	1
COCCCNC(=O)CN(c1cccc(Cl)c1)S(C)(=O)=O	-1.8	0.0%	-2	-0.7	-7	11
COCCCNC(=S)N(Cc1ccccc1)Cc1ccc(F)cc1	7.0	-1.0%	-4	0.2	-1	16
CCC(CC)C(=O)OCC(=O)Nc1ccc(S(=O)(=O)N2CCOCC2)cc1OC	-5.1	-2.9%	-1	-0.8	-5	3
Fc1ccc(CSc2nncn2NCc2ccc3c(c2)OCO3)cc1	-1.6	0.8%	3	-0.2	31	-2
COCCCNC(=O)C1CCN(c2nc(C)cc(C)n2)CC1	-1.8	-1.0%[38.3 µM]	6	0.2	15	-4
O=C(Nc1nc2c(Cl)cccc2s1)c1ccc(Br)o1	-1.2	14µM*	1	0.3	25	8
Cc1ccc(S(=O)(=O)N/N=C\c2ccc([N+](=O)[O-])o2)cc1C	1.5	2.1%	-4	-0.2	-3	-6
COc1ccccc1C(OC(=O)c1ccco1)C(=O)NC(C)(C)C (configuration not stated)	0.7	2.6%	5	1.2	6	5
O=C(Nc1ccc2c(c1)CN(Cc1ccco1)CC2)C1CCCO1 (configuration not stated)	-3.2	3.5%	-1	0.9	-6	8
CCOc1ccccc1NC(=O)Cn1c(C)cc(COC)c(C#N)c1=O	-2.3	-0.1%	-1	3.0	57	5
O=C(OCc1nc2ccsc2c(=O)[nH]1)c1ccco1	6.8	0.8%	9	0.7	70	-4
Cn1c(NC(=O)c2ccc(S(=O)(=O)N3CCOCC3)cc2)cc(=O)n(C)c1=O	-4.3	-1.6%	12	-0.3	7	2
CC1CCc2sc(C(=O)NN=C3CCC(c4ccccc4)CC3)cc2C1 (configuration not stated)	-5.6	-1.0%	1	0.9	15	nt
CCNC(=O)/C=C/c1ccccc1[N+](=O)[O-]	-11	-0.7%	-1	-0.1	-2	nt
Cc1nc2ccccc2nc1N/N=C/c1ccc(O)cc1O	0.9	1.4%	-69*	-1.4	-16	-93*
Cc1ccc(-c2cc(-c3ccc(C)o3)nc(N)c2C#N)cc1	3.6	-0.8%	-15	-0.6	-9	-20
S=c1nc2c(n[nH]1)c1ccccc1n2CCc1ccccc1	6.5	1.0%	-12	1.6	-3	-26
O=C1CC(c2ccco2)CC2=C1C(c1ccncc1)n1nc(C(F)(F)F)nc1N2 (configuration not stated)	nt	-0.5%	nt	1.0	6	nt
COc1ccc(-c2nn(C)c3sc(C(=O)N4CCN(c5cccc(C)c5C)CC4)cc23)cc1OC	nt	0.9%	nt	-0.7	8	nt
CC(=O)N(Cc1ccc(F)cc1)c1cccc(C)c1C	2.3	2.9%	15	2.4	-3	2
COc1ccc(C(=O)NC2CCN(S(=O)(=O)Cc3ccccc3)CC2)c(OC)c1	-1.9	6.0%	3	-0.5	15	1
CS(=O)(=O)N(CC(=O)NCCSc1ccc(Cl)cc1)c1ccc2c(c1)OCO2	-3.5	11%	-1	1.2	-19	-9
Cc1c(CNC2CCCCCC2)c(C(=O)O)c(C)n1Cc1c(F)cccc1Cl	nt	-1.1%	nt	-0.9	-2	nt
CN1C(C(=O)NCc2cccc(Br)c2)CC2Cn3c(nc4ccccc43)C21 (configuration not stated)	0.4	2.0%	-4	-0.8	14	2
CCOC(=O)c1c(/N=C/N(C)C)sc(/C=N/Nc2ccccc2)c1-c1ccc(Cl)cc1	-9.1	-2.7%	4	4.0	25	-17
C[C@@H]1CN([C@H](C)CO)C(=O)CCCn2cc(nn2)CO[C@H]1CN(C)C(=O)Nc1cccc(C(F)(F)F)c1	-2.4	-1.6%	10	-0.4	29	1
COc1ccc(NC(=O)c2ccc(F)c(F)c2)c2ccccc12	1.1	15%	2	-0.6	4	5
COc1ccc2[nH]c3c(c2c1)CCN1C(=O)N([C@@H](C)C(=O)NCc2c(F)cccc2Cl)C(=O)[C@]31C	-3.0	1.3%	-14	nt	nt	-11
COc1ccc(C(=O)NC2CCCc3c2cnn3-c2ccccc2F)cc1OC (configuration not stated)	3.1	1.9%	-2	-0.6	1	0
Cc1ccc(Cl)cc1NC(=O)CCC(=O)NCc1ccco1	-3.3	1.2%	-1	0.9	21	-16
COC(=O)COc1ccc(-c2ccc(F)cc2)cc1C=O	-1.9	3.0%	5	2.6	34	5
O=C(Nc1nnc([C@@H]2C[C@H](O)[C@@H](CO)O2)s1)Nc1ccccc1Oc1ccccc1	-2.3	2.0%	1	-0.6	nt	-1
CC1CCN(S(=O)(=O)c2ccc(Cl)s2)CC1	3.7	1.1%	5	-0.8	-1	17
Cc1ccc(OCC(=O)Nc2nc(-c3ccc(Br)cc3)ns2)cc1C	nt	-0.6%	nt	3.2	20	nt
O=C(O)CN1C(=O)/C(=C\c2ccccc2OCc2ccc(Cl)cc2Cl)SC1=S	-2.0	4.6%	-7	0.7	-2	-7
CCCc1cc(Nc2c(C)n(C)n(-c3ccccc3)c2=O)n2c(nc3ccccc32)c1C#N	4.5	6.2%	-1	1.3	6	-12
Cc1cc(C)cc(OCC(=O)Nc2cnn(CCCC(=O)O)c2)c1	0.0	-0.1%	6	5.2	-10	4
CC(=O)c1cccc(NC(=O)COc2ccc(S(=O)(=O)N3CCCCC3)cc2)c1	-2.6	-0.6%	-7	0.1	-21	-8
C/C=C\C=C\C(=O)N1CC2(CC(c3cccc(NC(=O)COc4ccc(Cl)cc4)c3)=NO2)C[C@H]1C(N)=O (some centres not stated)	1.2	0.4%	-1	0.0	37	nt
O=C1CN(N=Cc2ccco2)C(=O)N1	-0.2	1.5%	2	-0.7	5	7
CC1CCC(NC(=O)C2CCN(c3cnccn3)CC2)CC1 (configuration not stated)	-4.1	-3.0%	0	-0.7	-3	6

# Source: PubChem (National Center for Advancing Translational Sciences (NCATS))
